# Screening data: PubChem BioAssay, several laboratories
# ugtP null kill = kills S. aureus RN4220 lacking UgtP | S. aureus RN4220 ugtP deletion, OD600 growth, 16 h; some inactives read as strong as hits | growth inhibition, % (test concentration not listed) | 330,000 tested, 0.54% active | AID 1259309;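 active means z-score under -3 and OD600 up to 0.15 on both plates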;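 further: plate controls were untreated wells for no effect and antibiotic for full effect; wells of about 80 µL received 100 nL stock; the first replicate is given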
# PrP UTR inh = inhibition of PrP 5' UTR reporter expression. cell-based PrP 5' UTR mRNA reporter, plate reader. AID 488862. 340,000 tested, 0.35% active. inhibition, % (no concentration beside the values);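 active means every replicate at 50% or more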;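 further: 0 = median of the neutral control wells; tested in H4 reporter cells; numbers are from one replicate; inactives centre near -14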
# RN4220 kill = kills Staphylococcus aureus RN4220; 330,000 tested, 0.33% active; S. aureus RN4220 growth, OD600, 16 h; inhibition, % (concentration not given with the values);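 active means z-score of -3 or lower and OD600 up to 0.18 on both plates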;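 further: plate controls were untreated cells for no effect and reference antibiotic for full effect; stock transfer was 100 nL into about 80 µL; one replicate is shown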
# Mtb hypoxia inh = reduces hypoxia-regulated biosensor signal in M. tuberculosis; M. tuberculosis hypoxia-regulated fluorescent reporter, fluorescence; fluorescence inhibition, % (no concentration beside the values); 300,000 tested, 0.1% active;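 active means 35 to 45% if threefold the growth effect, above 45% if 1.5-fold the growth effect; inactive means the rest, general growth blockers included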;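 further: wells of about 50 µL received 100 nL stock; 0% = vehicle wells and 100% = reference inhibitor wells; whole bacteria with a GFP reporter of the hypoxia response; strong numbers were not always called active; many hits fall short of the cut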
# BJeLR viability = kills HRASV12-expressing BJeLR cells. BJeLR (HRASV12) viability, CellTiter-Glo ATP luminescence, 48 h; reference of the scale not given here. inhibition, % (no concentration beside the values). 300,000 tested, 0.17% active. AID 1554;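 active means replicate mean above 50%; inconclusive means above 50% but judged a plate artefact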;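 further: 50 nL library stock added to about 25 µL; numbers are from one replicate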
# Autofluor counter = flagged as autofluorescent in microsphere protease counterscreen; compound autofluorescence counterscreen, microsphere flow cytometry; active compounds read high; fluorescence intensity (no concentration beside the values); 360,000 tested, 3.1% active; AID 624483;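 active means at least 3 SD above the mean of all compounds, about 16000 in these data; inconclusive means too few beads counted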;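 further: 100 nL of 1 mM stock went into each well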
# Mtb hypoxia inh growth = recorded beside Mtb hypoxia inh, whose call it bears; growth inhibition, %; measured here: M. tuberculosis growth (absorbance);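 0% = vehicle and 100% = reference antibiotic; read after six days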
# * marks the source's active call; other numbers are inactive results; ? = inconclusive; . = not tested or not shown.
SMILES,ugtP null kill,PrP UTR inh,RN4220 kill,Mtb hypoxia inh,Mtb hypoxia inh growth,BJeLR viability,Autofluor counter
O=C(OCC(=O)c1c[nH]c2ccccc12)c1cc(Br)ccc1O,-11,-33,2.3,4,-5,10,3144
Cc1ccc(C(=O)/C=C\C(=O)c2ccc(C)cc2)cc1,15,-11,7.5,6,6,12,2120
CSc1ncc(C(=O)Nc2ccc(Br)cn2)c(C)n1,12,-5,4.3,5,-3,1,3399
CC1CCCC/C1=N\NS(=O)(=O)c1ccc(Br)cc1 (configuration not stated),.,-4,.,.,.,-4,4031
COc1cc(C#Cc2c(-c3cncn3C)n(C)c3ccc(-c4cnc(OC)nc4)cc23)cc(OC)c1,17,-12,-0.1,12,14,.,3160
COc1ccc(C(=O)N/N=C/c2ccc(OC(=O)c3cccs3)cc2)cc1,.,-22,.,.,.,-19,2307
CC(CCc1ccccc1)NC(=O)c1cc2sccc2n1C (configuration not stated),5,-22,9.0,9,6,0,10370
OCC[C@@H]1C[C@@H](O)[C@H](O)[C@@]2(OCCc3ccccc32)O1,.,-16,.,.,.,-2,2892
CCn1nc(-c2ccccc2)c2nc3ccccc3nc21,15,4,2.3,.,.,-1,3801
O=S(=O)(c1ccc(NC(=S)N/N=C/c2ccc(Oc3ccccc3)cc2)cc1)N1CCOCC1,.,-9,.,.,.,0,1982
CC1(C)C(C(=O)NN2C(=O)c3ccccc3C2=O)C1(C)C,-1,-4,2.4,-1,3,-1,2439
O=C(Nc1cccc(C(F)(F)F)c1)Nn1cnnc1,10,-21,1.2,3,2,6,4926
CC(C)c1nc2c(s1)CCc1onc(-c3cccc([N+](=O)[O-])c3)c1-2,3,-19,3.5,17,13,6,3734
CCN(CC(=O)NCc1ccc(F)cc1)C(=O)C1CCN(C(=O)Nc2ccccc2)CC1,-5,-23,-1.1,1,1,1,8015
CCOC(=O)N1CCC(N2Cc3cccc(C(=O)NCc4ccccn4)c3C2=O)CC1,-7,-31,-16,4,10,-2,6178
O=C(Nc1ccc(F)cc1)Nc1nnc(-c2ccncc2)s1,-7,-8,5.7,12,8,14,13034
COc1ccc(Nc2nc(N)c([N+](=O)[O-])c(N3CCN(C)CC3)n2)cc1,-5,-14,2.4,6,0,0,2685
COc1ccc(CCC(C(O)C(F)(F)F)S(=O)c2ccccc2)cc1 (configuration not stated),-7,1,10,7,7,-1,11043
N#Cc1c(-c2ccccc2)nc(SCC(=O)N(c2ccccc2)c2ccccc2)[nH]c1=O,1,-10,8.6,-3,-1,-2,2325
CC1(C)CC(NC(=O)c2ccccn2)CC(C)(C)N1O,5,-20,2.3,3,0,2,2475
O=C(Cc1csc(N2CCOCC2)n1)NN=Cc1ccc(O)c(O)c1O,-13,.,-1.6,-4,5,.,.
Cc1cc(C)c(C)c(OCCCOc2cccc3cccnc23)c1,58,-27,-0.8,20,-1,-4,2451
C[C@H](CO)N1C[C@H](C)[C@@H](CN(C)S(=O)(=O)c2cn(C)cn2)Oc2ccc(NC(=O)Cc3ccccc3)cc2C1=O,-7,-48,-15,5,9,.,3313
COCCc1nn2c(=O)cc(COC(=O)c3cc(OC)c(OC)c(OC)c3)nc2s1,1,-5,2.3,-3,2,4,6289
Cc1ccc(C2C(/C=C3/SC(=S)NC3=O)=C(c3cccs3)Oc3ccccc32)cc1 (configuration not stated),-7,-27,38,7,-11,-10,6960

# 19 consecutive records out of the list so far, quoted:
SMILES,ugtP null kill,PrP UTR inh,RN4220 kill,Mtb hypoxia inh,Mtb hypoxia inh growth,BJeLR viability,Autofluor counter
O=C(OCC(=O)c1c[nH]c2ccccc12)c1cc(Br)ccc1O,-11,-33,2.3,4,-5,10,3144
Cc1ccc(C(=O)/C=C\C(=O)c2ccc(C)cc2)cc1,15,-11,7.5,6,6,12,2120
CSc1ncc(C(=O)Nc2ccc(Br)cn2)c(C)n1,12,-5,4.3,5,-3,1,3399
CC1CCCC/C1=N\NS(=O)(=O)c1ccc(Br)cc1 (configuration not stated),.,-4,.,.,.,-4,4031
COc1cc(C#Cc2c(-c3cncn3C)n(C)c3ccc(-c4cnc(OC)nc4)cc23)cc(OC)c1,17,-12,-0.1,12,14,.,3160
COc1ccc(C(=O)N/N=C/c2ccc(OC(=O)c3cccs3)cc2)cc1,.,-22,.,.,.,-19,2307
CC(CCc1ccccc1)NC(=O)c1cc2sccc2n1C (configuration not stated),5,-22,9.0,9,6,0,10370
OCC[C@@H]1C[C@@H](O)[C@H](O)[C@@]2(OCCc3ccccc32)O1,.,-16,.,.,.,-2,2892
CCn1nc(-c2ccccc2)c2nc3ccccc3nc21,15,4,2.3,.,.,-1,3801
O=S(=O)(c1ccc(NC(=S)N/N=C/c2ccc(Oc3ccccc3)cc2)cc1)N1CCOCC1,.,-9,.,.,.,0,1982
CC1(C)C(C(=O)NN2C(=O)c3ccccc3C2=O)C1(C)C,-1,-4,2.4,-1,3,-1,2439
O=C(Nc1cccc(C(F)(F)F)c1)Nn1cnnc1,10,-21,1.2,3,2,6,4926
CC(C)c1nc2c(s1)CCc1onc(-c3cccc([N+](=O)[O-])c3)c1-2,3,-19,3.5,17,13,6,3734
CCN(CC(=O)NCc1ccc(F)cc1)C(=O)C1CCN(C(=O)Nc2ccccc2)CC1,-5,-23,-1.1,1,1,1,8015
CCOC(=O)N1CCC(N2Cc3cccc(C(=O)NCc4ccccn4)c3C2=O)CC1,-7,-31,-16,4,10,-2,6178
O=C(Nc1ccc(F)cc1)Nc1nnc(-c2ccncc2)s1,-7,-8,5.7,12,8,14,13034
COc1ccc(Nc2nc(N)c([N+](=O)[O-])c(N3CCN(C)CC3)n2)cc1,-5,-14,2.4,6,0,0,2685
COc1ccc(CCC(C(O)C(F)(F)F)S(=O)c2ccccc2)cc1 (configuration not stated),-7,1,10,7,7,-1,11043
N#Cc1c(-c2ccccc2)nc(SCC(=O)N(c2ccccc2)c2ccccc2)[nH]c1=O,1,-10,8.6,-3,-1,-2,2325

# New compounds follow.
SMILES,ugtP null kill,PrP UTR inh,RN4220 kill,Mtb hypoxia inh,Mtb hypoxia inh growth,BJeLR viability,Autofluor counter
Nc1ccccc1-c1n[nH]c(=S)s1,8,-7,6.4,6,5,.,4353
COc1cc2[nH]c(=O)n(CCCCCC(=O)NCCc3c[nH]c4ccccc34)c(=O)c2cc1OC,-2,-19,1.0,2,6,1,3501
CN(C)N1C(N)=C(C#N)C(c2ccc(F)cc2)C2=C1CCCC2=O (configuration not stated),17,-22,2.2,-1,-3,-15,3144
O=C(NCC(=O)N1CCN(Cc2ccccc2)CC1)c1ccc(Br)cc1,-1,-11,-2.2,-1,7,6,6244
N#Cc1c(N)nc2c3c(sc(=N)c2c1N)NC(=O)CC3c1c(F)cccc1Cl (configuration not stated),.,-11,.,.,.,-2,15794
Cc1[nH]c2ccccc2c1/C=C/C(=O)c1ccncc1,-9,-5,1.8,2,4,7,4821
CNC(=O)NNC(=O)c1nc(-c2ccccc2)c(C)o1,0,.,1.4,3,0,5,4402
CS(=O)(=O)Nc1cccc(C2=NN(S(=O)(=O)c3ccccc3)C(c3ccco3)C2)c1 (configuration not stated),11,-12,5.1,2,7,1,2700
CS(=O)(=O)c1ccc(S(=O)(=O)N2CCC(CO)(CCCc3ccccc3)CC2)cc1,11,-8,6.5,0,8,10,3612
Cc1cccc(-c2nnc(SCC(=O)Nc3ncccn3)n2C)c1,-3,-9,-1.3,-4,-5,-20,3465
COc1ccc2nc(NC(=O)C3COc4ccccc4O3)sc2c1 (configuration not stated),3,-94,-5.4,4,8,0,5483
Cc1ccc(C(=O)NCC(=O)Nc2ccncc2)s1,-3,-7,-1.3,-4,9,-5,5630
COc1ccc(CCNC(=O)/C(=C/c2cccnc2)NC(=O)c2ccccc2)cc1OC,.,-12,.,.,.,0,3439
CC1(C)c2[nH]c3ccccc3c2CC2C(=O)N(Cc3ccccc3Cl)C(=O)N21 (configuration not stated),-4,.,0.0,1,1,.,.
COC(=O)C1CCN(C(=O)COC(=O)CC(NC(N)=O)c2ccc(Cl)cc2)CC1 (configuration not stated),3,-33,-3.3,-3,-3,-2,4180
COCCn1c(C)cc(C(=O)COC(=O)C23CC4CC(CC(O)(C4)C2)C3)c1C,0,0,-1.8,2,12,0,10166
CCOc1cc(C(=O)OCC(=O)Nc2cccc(S(=O)(=O)NC3=NCCCCC3)c2)cc(OCC)c1OCC,6,-19,-1.7,12,10,.,6236
CN(C)c1nc2c(c(=O)[nH]c(=O)n2C)n1CCCc1ccccc1,1,-12,0.6,5,-1,-5,.
CCOc1ccccc1C=NNC(=O)c1c(C)nc2ccc(Br)cn12,1,.,1.5,10,1,.,.
CCC(=O)Oc1ccc(C(=O)Nc2cccc(C(=O)NC(C)(C)C)c2)cc1,7,-22,5.4,2,5,-3,2134
O=C(NCc1nnnn1-c1ccc(F)c(F)c1)c1ccc2c(c1)OCO2,-1,-16,0.0,0,7,2,.
COCCNC(=O)/C(C#N)=C/c1c(N2CC(C)OC(C)C2)nc2ccccn2c1=O (configuration not stated),.,-30,.,.,.,-8,2057
O=c1[nH]nc(CNc2ccc(OC(F)(F)F)cc2)c2ccccc12,-16,-27,-0.6,-12,0,0,2442
Cc1nnc(NC(=O)NCN2C(=O)C3C4C=CC(C4)C3C2=O)s1 (configuration not stated),0,-7,4.3,8,6,-5,3177
CCCCn1c(N)c(N(Cc2ccccc2OC)C(=O)C2=COCCO2)c(=O)[nH]c1=O,4,-10,1.5,9,4,0,?

# Overlap with the part before: two compounds, then new ones.
SMILES,ugtP null kill,PrP UTR inh,RN4220 kill,Mtb hypoxia inh,Mtb hypoxia inh growth,BJeLR viability,Autofluor counter
Cc1nnc(NC(=O)NCN2C(=O)C3C4C=CC(C4)C3C2=O)s1 (configuration not stated),0,-7,4.3,8,6,-5,3177
CCCCn1c(N)c(N(Cc2ccccc2OC)C(=O)C2=COCCO2)c(=O)[nH]c1=O,4,-10,1.5,9,4,0,?
O=C(COC(=O)c1ccc(Cl)nc1)NC1CCCc2ccccc21 (configuration not stated),-2,-13,2.4,16,17,.,3607
CCOC(=O)c1cn2nc(N3CCCCC3)ccc2n1,-5,11,11,10,8,3,4119
Clc1ccc(-c2nnc3c4ccccc4nc(N4CCOCC4)n23)cc1Cl,-14,-14,4.2,7,1,1,21865*
CSc1nc2sc3c(c2c(=O)n1C)CCC3,10,-30,8.0,23,11,8,3253
CCC(=O)c1cn(CC(=O)Nc2ccc(C)cc2C)c2ccccc12,7,6,2.2,5,-2,-8,.
Nc1cc(=O)[nH]c(SCC(=O)Nc2cc(Cl)cc(Cl)c2)n1,-9,-10,2.4,-1,8,-2,15286
O=C(N/N=C1\SCC(=O)N1CCc1ccccc1)c1cccs1,.,-1,.,.,.,9,3363
Cc1ccc(-n2c(CNc3ccc(F)cc3)nnc2SCC(=O)NCc2ccco2)cc1,-3,-22,3.3,11,4,-16,4233
O=[N+]([O-])c1ccc(CS(=O)(=O)c2ccc(Cl)cc2)cc1,10,-11,1.6,8,7,-2,2997
COc1ccccc1NC(=O)c1cc(C(=O)Nc2ccccc2OC)cc(N2C(=O)CCC2=O)c1,-1,-20,0.8,-2,4,-6,2631
Cc1ccccc1N(CC(=O)NCc1ccc2c(c1)OCO2)C(=O)CCC(=O)Nc1ccccn1,0,-4,1.2,.,.,-5,2968
COc1ccc(NC(=O)c2cc(CC(C)C)nc3ccccc23)cc1,-4,30,2.2,-7,10,6,3994
Cc1ccccc1OCCCCn1c(CO)nc2ccccc21,4,-49,-0.3,12,2,21,4593
COc1ccccc1-c1nnc(SCC(=O)Nc2cc(C)on2)o1,-6,-6,5.2,8,0,-9,2550
O=C1NC(=O)c2cc(NC(=O)C3CCCCC3)ccc21,-5,-26,2.6,-2,7,-1,9430
Cn1c(=O)n(Cc2ccccc2F)c(=O)c2c1nc1n2CCCN1CCc1ccccc1,6,-5,4.0,.,.,-5,2187
Cc1cc(C)c(NC(=O)COC(=O)c2ccncc2)c(C)c1,2,-11,2.0,7,7,.,3873
CN1CCN(C(=O)CCN2C(=O)S/C(=C/c3ccc(Cl)cc3)C2=O)CC1,1,-11,-0.3,-2,6,.,3392
Cc1nn(C)cc1/C=N/NC(=O)Cn1nnc(N)n1,.,-8,.,.,.,1,2892
Cc1ccc(NC(=O)CN2C(=O)CCSc3ccc(S(=O)(=O)N4CCCC4)cc32)cc1C,-5,-66,3.3,-5,8,7,5827
COc1ccc(N(CC(=O)NCc2cccnc2)S(=O)(=O)c2c(C)nn(C)c2C)cc1,-6,-15,2.9,3,-3,.,5151
